# Screening data deposited in PubChem BioAssay by Broad Institute.
# Vaccinia inh: blocks a specific stage of Vaccinia orthopoxvirus infection, primary screen, cell-based, single point; Vaccinia-infected cells, mCherry/Venus stage reporter fluorescence; active compounds read low; some inactives read as strong as hits; activity change (mCherry), % (concentration not given with the values); 89,000 tested, 0.01% active;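 active = mCherry past -33% and 40 or more points under the early reporter, replicates agreeing; inconclusive = past -33% without that gap or agreement; tested in A549 cells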;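 also: scaled between vehicle wells and reference inhibitor wells; 23 nL library stock went into each well; one replicate is shown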
# Vaccinia inh Venus: further read-out of Vaccinia inh, marked with its call; activity change (Venus), %; measured here: Venus reporter, other viral stage;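 negative = less Venus signal; first of two replicates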
# An asterisk follows results filed as active; ? = inconclusive; . = no result given; & = joins results of further samples. The list is partial; the hit share may differ from the screen's.
# Screens in order: Vaccinia inh	Vaccinia inh Venus
- COc1ccccc1-c1ccc2c(c1)O[C@@H](CN(C)C(=O)Nc1cccc(F)c1)[C@@H](C)CN([C@@H](C)CO)S2(=O)=O
  ?	.
- C[C@@H]1CN([C@@H](C)CO)C(=O)c2cc(NC(=O)CCC(F)(F)F)ccc2O[C@@H](C)CCCCO[C@@H]1CN(C)S(=O)(=O)c1ccccc1
  6.4	2.2
- CO[C@H]1CN(C)C(=O)c2ccc(NC(=O)c3ccno3)cc2OC[C@@H](C)N(S(C)(=O)=O)C[C@H]1C
  24.5	16.7
- C[C@@H]1CCCCO[C@@H](CN(C)Cc2ccccc2)[C@H](C)CN([C@H](C)CO)C(=O)c2cc(NS(=O)(=O)c3ccccc3)ccc2O1
  ?	.
- COc1ccc(-c2ccc([C@@H]3[C@H]4CNCC(=O)N4[C@H]3CO)cc2)cc1
  26.0	9.6
- C[C@H](CO)N1C[C@H](C)[C@@H](CN(C)Cc2ccc(C(=O)O)cc2)Oc2ccc(NC(=O)C3CCCCC3)cc2CC1=O
  8.5	-0.1
- O=C(C[C@H]1CC[C@H]2[C@@H](COC[C@@H](O)CN2C(=O)Nc2ccc(C(F)(F)F)cc2)O1)NCCc1ccncc1
  -11.4	-5.5
- CC(C)NC(=O)Nc1cccc2c1O[C@@H](CN(C)C(=O)Nc1ccccc1)[C@H](C)CN([C@H](C)CO)C2=O
  6.7	7.2
- C[C@@H]1CCCCO[C@H](CN(C)Cc2ccncc2)[C@H](C)CN([C@@H](C)CO)C(=O)c2cc(NC(=O)Nc3ccc(C(F)(F)F)cc3)ccc2O1
  -30.5	-19.4
- O=C(C[C@@H]1C[C@@H]2c3cc(NC(=O)CC4CC4)ccc3O[C@@H]2[C@@H](CO)O1)NCc1cccnc1
  -1.4	-5.3
- Cc1noc(C)c1NC(=O)Nc1ccc2c(c1)CC(=O)N([C@H](C)CO)C[C@@H](C)[C@@H](CN(C)C(=O)Nc1ccc(C(F)(F)F)cc1)O2
  19.2	16.7
- CCCNC(=O)C[C@H]1C[C@H]2c3cc(NC(=O)C4CCC4)ccc3O[C@H]2[C@@H](CO)O1
  19.9	12.0
- C[C@@H]1CN([C@H](C)CO)C(=O)c2cccc(NC(=O)c3nc4ccccc4s3)c2O[C@H]1CN(C)CC1CCCCC1
  ?	.
- C[C@@H]1CCCCO[C@H](CN(C)S(=O)(=O)c2ccccc2)[C@@H](C)CN([C@H](C)CO)C(=O)c2cc(NC(=O)Nc3ccc(F)cc3)ccc2O1
  11.6	13.6
- O=C(C[C@@H]1CC[C@@H]2[C@H](COC[C@@H](O)CN2C(=O)c2ccncc2)O1)NCc1cc(F)cc(F)c1
  -1.2	0.9
- C[C@H](CO)N1C[C@H](C)[C@H](CN(C)Cc2ccccc2)Oc2ncc(C#Cc3cccnc3)cc2C1=O
  -1.7	0.2
- C[C@H](CO)N1C[C@H](C)[C@H](CN(C)C)Oc2ccc(NC(=O)Nc3ccc(F)cc3)cc2CC1=O
  -0.2	-4.3
- CCCNC(=O)N1[C@@H]2CN(C(=O)c3ccncc3)c3ccccc3[C@@H]2[C@@H]1CO
  3.2	13.1
- C[C@@H]1CN([C@@H](C)CO)C(=O)c2cccc(NS(=O)(=O)c3cccs3)c2O[C@@H]1CN(C)Cc1ccc(-c2ccccc2)cc1
  -32.8	-28.6
- C[C@@H]1CN([C@@H](C)CO)S(=O)(=O)c2ccc(C#Cc3ccc(F)cc3)cc2O[C@H]1CN(C)C
  -25.2	-29.6
- C[C@@H]1CN([C@@H](C)CO)C(=O)CCCn2nncc2CO[C@@H]1CN(C)C(=O)Nc1ccc2c(c1)OCO2
  6.7&9.0	11.6&14.4
- Cc1ccc(S(=O)(=O)Nc2ccc3c(c2)CC(=O)N([C@H](C)CO)C[C@@H](C)[C@H](CN(C)C(=O)Nc2ccc(C(F)(F)F)cc2)O3)cc1
  -0.8	7.0
- COc1ccc2c3c([nH]c2c1)[C@@H](CO)N(S(=O)(=O)c1ccc(C)cc1)CC31CCN(Cc2nccs2)CC1
  -25.7	-24.8
- O=C(C1CCCCC1)N1CC2(C1)[C@H](c1ccccc1)[C@H](CO)N2CC1CCCC1
  -32.0	-25.3
- CS(=O)(=O)Nc1ccc2c(c1)[C@@H]1C[C@@H](CC(=O)NCc3ccc(Oc4ccccc4)cc3)O[C@@H](CO)[C@@H]1O2
  ?	.
- CN1c2ccc(-c3ccc(C#N)cc3)cc2[C@H]2[C@H](CCN2S(=O)(=O)c2ccc(F)cc2)[C@H]1CO
  ?	.
- COc1ccc2c3c(n(C)c2c1)[C@@H](CO)N(CC1CC1)CC31CN(C(=O)CC2CC2)C1
  8.6	2.4
- O=C(CN1CCOCC1)N1CC[C@@H]2[C@H]1c1cc(-c3ccccc3)ccc1N[C@@H]2CO
  -28.0	-21.6
- C[C@H]1CN([C@@H](C)CO)S(=O)(=O)c2ccc(C3=CCCCC3)cc2O[C@H]1CN(C)Cc1ccncc1
  ?	.
- C[C@H](NC(=O)C[C@H]1CC[C@@H](NS(=O)(=O)c2cccc(F)c2)[C@@H](CO)O1)c1ccccc1
  7.7	3.5
- C[C@@H]1CN([C@@H](C)CO)C(=O)c2cccc(NS(=O)(=O)c3cn(C)cn3)c2O[C@@H]1CN(C)S(=O)(=O)c1cn(C)cn1
  34.0	23.5
- C[C@@H]1CN([C@H](C)CO)C(=O)Cc2cc(NC(=O)CCN3CCOCC3)ccc2O[C@@H]1CN(C)Cc1ccncc1
  -3.9	-10.7
- C[C@H](CO)N1C[C@H](C)[C@H](CN(C)Cc2cccnc2)Oc2ncc(C#CCc3ccccc3)cc2C1=O
  5.4	3.9
- C[C@@H]1CN([C@@H](C)CO)C(=O)Cc2cc(NC(=O)NC3CCCCC3)ccc2O[C@H]1CN(C)CC1CCCCC1
  ?	.
- Cc1noc(C)c1NC(=O)N(C)C[C@H]1Oc2ccc(NC(=O)CCC(F)(F)F)cc2C(=O)N([C@H](C)CO)C[C@H]1C
  -4.1	-2.3
- Cc1noc(C)c1NC(=O)N(C)C[C@@H]1Oc2ccc(NC(=O)NC3CCCCC3)cc2CC(=O)N([C@@H](C)CO)C[C@H]1C
  1.8	-4.3
- COC(=O)C[C@@H]1C=C[C@H](NC(=O)Nc2ccc(C(F)(F)F)cc2)[C@H](CO)O1
  9.9	4.1
- C[C@@H]1CN([C@@H](C)CO)C(=O)CCCn2nncc2CO[C@H]1CN(C)C(=O)Oc1ccccc1
  5.3&1.6	6.7&-1.8
- COc1ccc2c3c(n(C)c2c1)[C@@H](CO)N(C(=O)C1CC1)CC31CN(C(=O)Nc2cccc(F)c2)C1
  1.4	-1.0
- C[C@@H]1CN([C@@H](C)CO)C(=O)Cc2cc(NC(=O)Nc3ccc(F)cc3)ccc2O[C@H]1CN(C)Cc1ccccc1
  ?	.
- C[C@@H]1CCCCO[C@H](CN(C)S(=O)(=O)c2cccs2)[C@@H](C)CN([C@@H](C)CO)C(=O)c2cc(NC(=O)c3ccncc3)ccc2O1
  -4.2	-7.8
- C/C=C/c1ccc([C@@H]2[C@H]3CN(S(=O)(=O)c4ccccc4)CCCCN3[C@H]2CO)cc1
  -21.8	-7.5
- C[C@@H]1CN([C@H](C)CO)C(=O)c2c(c3ccccc3n2C)-c2ccccc2CO[C@@H]1CN(C)C(=O)[C@H](Cc1ccccc1)N(C)C
  ?	.
- C[C@H](CO)N1C[C@H](C)[C@H](CN(C)Cc2cccnc2)Oc2ncc(-c3cccc(F)c3)cc2C1=O
  14.2	10.6
- COc1ccc(NC(=O)Nc2ccc3c(c2)[C@@H]2C[C@@H](CC(=O)NC4CCCC4)O[C@@H](CO)[C@@H]2O3)cc1
  6.1	8.7
- Cc1ccc(S(=O)(=O)N(C)C[C@@H]2Oc3c(NS(=O)(=O)c4c(C)noc4C)cccc3C(=O)N([C@@H](C)CO)C[C@@H]2C)cc1
  -9.6	-14.9
- C[C@H](CO)N1C[C@H](C)[C@@H](CN(C)C(=O)c2cccc(F)c2)Oc2ncc(/C=C/c3ccccc3)cc2C1=O
  ?	.
- COc1ccc(NC(=O)N(C)C[C@H]2Oc3ccc(NC(=O)Nc4ccc(F)cc4)cc3C(=O)N([C@@H](C)CO)C[C@H]2C)cc1
  18.1	11.5
- O=C(Nc1ccc(F)cc1)N1CCCCN2[C@H](C1)[C@H](c1ccc(-c3ccncc3)cc1)[C@@H]2CO
  -20.8	-29.5
- CNC[C@H]1Oc2ccc(NC(=O)c3ccncc3)cc2C(=O)N([C@@H](C)CO)C[C@H]1C
  -2.5	2.3
- C[C@H](CO)N1C[C@H](C)[C@H](CN(C)Cc2ccccc2)Oc2cc(/C=C/c3ccccc3)ccc2S1(=O)=O
  -15.0	-14.1
- CC(C)CC#Cc1cnc2c(c1)C(=O)N([C@H](C)CO)C[C@H](C)[C@H](CN(C)C(=O)Cc1ccncc1)O2
  -7.6	-13.9
- C[C@@H]1CN([C@@H](C)CO)S(=O)(=O)c2ccc(-c3cccc(F)c3)cc2O[C@@H]1CN(C)C(=O)c1cccc(F)c1
  ?	.
- C[C@H]1CN([C@@H](C)CO)C(=O)c2cc(C#CC(C)(C)O)cnc2O[C@@H]1CN(C)C(=O)C1CC1
  12.1	-1.4
- CCC(=O)N(C)C[C@@H]1Oc2ncc(C#CC(C)(C)O)cc2C(=O)N([C@@H](C)CO)C[C@@H]1C
  16.3	8.1
- CCCN1[C@@H]2c3ccc(-c4ccccc4)c(=O)n3C[C@@H]2[C@@H](CO)[C@@H]1C(=O)N(C)C
  7.8	5.1
- COc1ccc(CN(C)C[C@H]2Oc3c(NS(=O)(=O)c4ccc(Cl)cc4)cccc3C(=O)N([C@H](C)CO)C[C@H]2C)cc1
  -3.3	-2.5
- Cc1ccc(-c2ccc3c(c2)O[C@H](CN(C)Cc2ccccn2)[C@@H](C)CN([C@H](C)CO)S3(=O)=O)cc1
  ?	.
- CNC(=O)C[C@@H]1CC[C@H]2[C@@H](COC[C@@H](O)CN2Cc2ccncc2)O1
  4.9	3.1
- C[C@H](CO)N1C[C@H](C)[C@H](CN(C)S(C)(=O)=O)Oc2c(NC(=O)Nc3ccccc3)cccc2C1=O
  -3.0	-0.7

# Two of the compounds above, field by field:
SMILES: COc1ccc2c3c(n(C)c2c1)[C@@H](CO)N(C(=O)C1CC1)CC31CN(C(=O)Nc2cccc(F)c2)C1
  Vaccinia inh = 1.4	Vaccinia inh Venus = -1.0

SMILES: C[C@@H]1CN([C@@H](C)CO)C(=O)Cc2cc(NC(=O)NC3CCCCC3)ccc2O[C@H]1CN(C)CC1CCCCC1
  Vaccinia inh = ?	Vaccinia inh Venus = .

# Additional entries:
# Screens in order: Vaccinia inh	Vaccinia inh Venus
- Cc1ccc(S(=O)(=O)N[C@@H]2CC[C@H](CC(=O)NC3CCCCC3)O[C@H]2CO)cc1
  2.5	10.4
- C[C@@H]1CN([C@@H](C)CO)C(=O)Cc2cc(NS(=O)(=O)c3cn(C)cn3)ccc2O[C@H]1CN(C)Cc1ccc(C(=O)Nc2ccccc2N)cc1
  13.1	8.0
- COCC(=O)Nc1ccc2c(c1)[C@@H]1C[C@H](CC(=O)N3CCc4ccccc4C3)O[C@H](CO)[C@@H]1O2
  10.5	9.8
- C[C@H](CO)N1C[C@H](C)[C@@H](CN(C)S(C)(=O)=O)Oc2c(NC(=O)NC3CCCCC3)cccc2C1=O
  4.7	-0.3
- C[C@H]1CN([C@@H](C)CO)C(=O)c2cc(/C=C/c3ccccc3)cnc2O[C@H]1CN(C)C(=O)C1CCOCC1
  19.0	4.8
- CN(C)C(=O)[C@H]1[C@H](CO)[C@H]2Cn3c(ccc(C4=CCCC4)c3=O)[C@@H]1N2CC1CCCC1
  5.7	7.6
- CN1[C@@H]2c3ccc(-c4ccc(F)cc4)c(=O)n3C[C@@H]2[C@@H](CO)[C@@H]1C(=O)Nc1ccccc1
  -15.2	-8.5
- COc1ccc(NC(=O)Nc2ccc3c(c2)C(=O)N([C@H](C)CO)C[C@@H](C)[C@H](CN(C)Cc2ccc4c(c2)OCO4)OCCCC[C@@H](C)O3)cc1
  ?	.
- C[C@@H]1CCCCO[C@H](CN(C)Cc2ccc(C(F)(F)F)cc2)[C@H](C)CN([C@@H](C)CO)C(=O)c2cc(NC(=O)c3ccncc3)ccc2O1
  ?	.
- O=C(c1ccccn1)N1CC2(C1)[C@H](c1ccccc1)[C@@H](CO)N2C(=O)C1CC1
  -3.2	-2.1
- O=C(CN1CCOCC1)N1CCCCN2[C@@H](CO)[C@@H](c3ccc(C#Cc4ccccc4)cc3)[C@@H]2C1
  ?	.
- CCC(=O)Nc1ccc2c(c1)OC[C@@H](C)N(Cc1ccccc1OC)C[C@@H](C)[C@H](OC)CN(C)C2=O
  -3.6	-3.3
- C[C@@H]1CN([C@H](C)CO)C(=O)Cc2cc(NC(=O)Cn3cnnn3)ccc2O[C@H]1CN(C)CC1CC1
  4.0	12.6
- C[C@@H]1CN([C@@H](C)CO)C(=O)c2cc(C#Cc3cccnc3)cnc2O[C@H]1CN(C)Cc1cccnc1
  10.6	3.0
- C[C@@H]1CN([C@H](C)CO)C(=O)c2cc(-c3ccc(C#N)cc3)cnc2O[C@H]1CN(C)C(=O)c1ccccc1
  4.8&0.4	2.1&1.8

# Single records (already shown):
# `CCC(=O)Nc1ccc2c(c1)OC[C@@H](C)N(Cc1ccccc1OC)C[C@@H](C)[C@H](OC)CN(C)C2=O` reads Vaccinia inh = -3.6; Vaccinia inh Venus = -3.3
# `O=C(CN1CCOCC1)N1CCCCN2[C@@H](CO)[C@@H](c3ccc(C#Cc4ccccc4)cc3)[C@@H]2C1` reads Vaccinia inh = ?; Vaccinia inh Venus = .
# `C[C@@H]1CN([C@H](C)CO)C(=O)c2cc(-c3ccc(C#N)cc3)cnc2O[C@H]1CN(C)C(=O)c1ccccc1` reads Vaccinia inh = 4.8&0.4; Vaccinia inh Venus = 2.1&1.8
